# From PubChem
# ANO1 block: TMEM16A chloride channel inhibitors, primary screen, cell-based, HTS; Anoctamin-1 (Mus musculus), Q8BHY3; HEK293 TMEM16A/YFP iodide influx fluorescence, ionomycin; normalized B-score (activity score, 25-100; higher = stronger inhibition) at 10 µM; 310,000 compounds, 1.2% hits; AID 588511, 2011;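 active means ratio plate-corrected score three or more library SD toward inhibition, starting fluorescence score within five deviations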;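 further: score derived from kinetic fluorescence span divided by baseline fluorescence per well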
# MrgX1 allo act: positive allosteric modulators of MrgX1, primary screen, HEK293 cells, Fluo-4 calcium flux; Mas-related G-protein coupled receptor member X1 (Homo sapiens), Q96LB2; FDSS; stronger effect = higher value; B-score at 10 µM; 310,000 compounds, 0.63% hits; AID 588675, 2011;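 active means plate-corrected calcium response at least 3 library SD above typical, normal starting fluorescence, not activating the receptor alone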;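 further: compound read alongside a low EC10 to EC30 dose of BAM8-22 agonist; peak minus trough fluorescence over baseline measured at the second addition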
# Target sequence (Q96LB2 whole entry, looked up): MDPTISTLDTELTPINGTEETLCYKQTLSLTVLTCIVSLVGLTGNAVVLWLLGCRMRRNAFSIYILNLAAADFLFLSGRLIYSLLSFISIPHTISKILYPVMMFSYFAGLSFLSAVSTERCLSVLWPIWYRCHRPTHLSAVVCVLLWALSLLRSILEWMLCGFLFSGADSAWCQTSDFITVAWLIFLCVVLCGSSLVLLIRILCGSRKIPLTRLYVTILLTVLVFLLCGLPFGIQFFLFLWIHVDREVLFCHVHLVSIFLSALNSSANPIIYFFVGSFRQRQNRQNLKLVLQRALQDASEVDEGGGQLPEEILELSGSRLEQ
# RGS4 inh: RGS4 inhibitors, primary screen, cell-based, HEK293 M3R inducible RGS4, calcium flux; Regulator of G-protein signaling 4 (Homo sapiens), P49798; AID 463165, 2010; 310,000 compounds, 0.45% hits; B-score at 10 µM; Fluo-4 calcium flux; stronger effect = higher value; triggered by carbachol at its EC20;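 active means B-score, a plate-corrected calcium signal, over three deviations above library mean, with baseline fluorescence within five deviations of library mean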;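 further: RGS4 expression induced by doxycycline in cells with stable M3 receptor; B-score is computed from the integrated fluorescence ratio over baseline after carbachol; higher B-score means a larger calcium signal and so more RGS4 inhibition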
# Target sequence (P49798 whole entry, looked up): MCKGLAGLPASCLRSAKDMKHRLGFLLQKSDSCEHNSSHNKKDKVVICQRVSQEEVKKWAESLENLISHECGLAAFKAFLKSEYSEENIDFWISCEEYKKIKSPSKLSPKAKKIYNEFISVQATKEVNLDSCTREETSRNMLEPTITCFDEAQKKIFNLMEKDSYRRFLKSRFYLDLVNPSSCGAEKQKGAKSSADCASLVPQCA
# MrgX1 agonist: agonists of human MrgX1 receptor, primary screen, HEK293 cells, Fluo-4 calcium flux; Mas-related G-protein coupled receptor member X1 (Homo sapiens), Q96LB2; Fluo-4 calcium fluorescence, agonist mode; stronger effect = higher value; B-score at 10 µM; 310,000 compounds, 0.44% hits; AID 588627, 2011;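 active means calcium response B-score plate-corrected fluorescence ratio at least 3 library SD, with starting fluorescence B-score inside 5 SD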
#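 Material – MrgX1-expressing HEK293 cells · Input – 15,000 cells seeded per well · Dosing – compound as first of three additions · Times – overnight seeding, then 1 h dark dye loading · Measured by – kinetic Fluo-4 NW fluorescence of intracellular calcium · Read-out – B-scored fluorescence response ratio · Benchmarks – positive and negative control wells on each plate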
# KCNQ1 block: inhibitors of human KCNQ1 channel, primary screen, cell-based, thallium flux, high-throughput; 310,000 compounds, 1.3% hits; B-score at 10 µM; CHO-K1 KCNQ1, FluxOR thallium flux fluorescence; stronger effect = higher value;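 active means compounds whose thallium flux B-score, printed positive for inhibition, exceeds three library SD while starting fluorescence stays within three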;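 further: channel opened by potassium depolarization with thallium stimulus after 20 min compound exposure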
# TMEM16A act: TMEM16A chloride channel activators or potentiators, primary screen, cell-based, HTS. Anoctamin-1 (Mus musculus), Q8BHY3. HEK293 TMEM16A/YFP-H148Q/I152L, iodide quench fluorescence; stronger effect = lower value. B-score at 10 µM. 340,000 compounds, 0.3% hits. AID 623877, 2012;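 active means fluorescence-ratio B-score plate-corrected deviation score at least 3 library SD below zero, with starting fluorescence score within 5 deviations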;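 further: channel opened by trigger with iodide after compound preincubation; score built on the fluorescence ratio of max minus min over baseline; more negative score means more quench and so TMEM16A activation or potentiation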
# KCNQ1 pot: potentiators or activators of KCNQ1 channel, primary screen, cell-based, thallium flux, high-throughput; Potassium voltage-gated channel subfamily KQT member 1 (Homo sapiens), P51787; CHO-K1 KCNQ1, thallium flux FluxOR fluorescence; stronger effect = higher value; B-score at 10 µM; 310,000 compounds, 0.35% hits; AID 2648, 2010;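 active means fluorescence ratio B-score, a plate-corrected score, at least three library SD, with initial intensity B-score within 5 SD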
#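 Test system: CHO-K1 cells stably expressing KCNQ1 / Medium: assay buffer / Also added: depolarizing K+/Tl+ stimulus, K2SO4 and Tl2SO4 each 12.5 mM in 5x stock / Incubation: 90 min dye loading and 20 min compound exposure, both at room temperature / Signal: thallium influx via FluxOR fluorescence, kinetic imaging / Evaluation: B score of baseline-normalized fluorescence ratio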
# KCNK3 block: human KCNK3 channel inhibitors, primary screen, CHO cells, FluxOR thallium flux, B-score; 340,000 compounds, 0.84% hits; AID 602410, 2012; FluxOR fluorescence; stronger effect = lower value; B-score at 10 µM; Potassium channel subfamily K member 3 (Homo sapiens), O14649;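 active means B-score under library mean minus 4 SD, starting fluorescence ratio at most library mean plus 5 SD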;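 further: more negative B-score means stronger inhibition of thallium flux through KCNK3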
# Target sequence (O14649 whole entry, looked up): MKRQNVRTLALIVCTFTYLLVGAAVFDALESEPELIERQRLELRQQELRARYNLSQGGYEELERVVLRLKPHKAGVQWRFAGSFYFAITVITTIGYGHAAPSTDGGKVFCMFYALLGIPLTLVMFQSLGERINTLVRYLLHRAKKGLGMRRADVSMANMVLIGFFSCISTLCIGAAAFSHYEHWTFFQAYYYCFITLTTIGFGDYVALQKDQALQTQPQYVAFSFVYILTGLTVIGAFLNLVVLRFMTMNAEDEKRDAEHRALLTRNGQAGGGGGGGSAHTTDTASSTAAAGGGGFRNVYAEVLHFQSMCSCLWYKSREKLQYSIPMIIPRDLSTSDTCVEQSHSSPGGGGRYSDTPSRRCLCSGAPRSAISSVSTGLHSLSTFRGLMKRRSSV
# KCNK9 inh: KCNK9 potassium channel inhibitors, primary screen, HEK293 cells, thallium flux. Potassium channel subfamily K member 9 (Homo sapiens), Q9NPC2. FluxOR thallium flux fluorescence; stronger effect = lower value. B-score at 10 µM. 310,000 compounds, 1.2% hits. AID 488922, 2010;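 active means ratio B-score over 3 SD below the library mean, with starting fluorescence within 5 SD of its mean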;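 further: negative B-score means less thallium flux so channel inhibition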
# RGS4 act: RGS4 potentiators or activators, primary screen, cell-based, HEK293 M3R inducible RGS4, calcium flux. carbachol calcium flux Fluo4; stronger effect = lower value. B-score at 10 µM. 310,000 compounds, 0.92% hits;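 active means B-score of the integrated calcium signal more than 4 SD below the library mean, with starting fluorescence not abnormally high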;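 further: negative B-score means reduced calcium response which marks RGS4 activation or potentiation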
#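 Test system: HEK293 cells with stable M3R and inducible RGS4; also added: carbachol at ECmax as muscarinic agonist stimulus; schedule: dye loading 30 min 37 °C, buffer rest 30 min RT; technique: kinetic calcium fluorescence imaging with Fluo4-AM dye, 2 µM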
# Active calls of the source: *; i = inactive; · = not tested or not shown.
SMILES | ANO1 block | MrgX1 allo act | RGS4 inh | MrgX1 agonist | KCNQ1 block | TMEM16A act | KCNQ1 pot | KCNK3 block | KCNK9 inh | RGS4 act
CC(C)NC[C@@H](O)COc1ccc(CC(N)=O)cc1 | i | i | i | i | i | i | i | i | i | i
CC(=O)Nc1nnc(S(N)(=O)=O)s1 | i | i | i | i | i | i | i | i | i | i
CCOc1ccc(S(=O)(=O)Nc2ccc(C(=O)N3CCC3)cc2)cc1 | i | i | i | i | i | i | i | i | i | i
COc1ccc(OC)c(C(O)CNC(=O)CN)c1 (configuration not stated) | i | i | i | i | i | i | i | i | i | i
CC(C)(C)c1ccc(CSc2nc(N)cc(=O)[nH]2)cc1 | i | i | i | i | i | i | i | i | i | i
CC(C)NCC(O)COc1cccc2[nH]ccc12 (configuration not stated) | i | i | · | i | · | i | · | i | · | ·
CC(NC(=O)COC(=O)c1ccccc1SCC(=O)N1CCCC1)c1ccccc1 (configuration not stated) | i | i | i | i | i | i | i | i | i | i
O=C(NCc1ccncc1)C(=O)NCC1OCCN1S(=O)(=O)c1ccc(F)cc1 (configuration not stated) | i | i | i | i | i | i | i | i | i | i
CC(C(=O)O)c1cccc(C(=O)c2ccccc2)c1 (configuration not stated) | i | i | i | i | i | i | i | i | i | i
CC(C)OCCCn1c(=S)[nH]c2ccc(N3CCOCC3)cc2c1=O | i | i | i | i | i | i | i | i | i | i
OC(CCN1CCCC1)(c1ccccc1)C1CCCCC1 (configuration not stated) | i | i | i | i | i | i | i | i | i | i
O=C(CSc1n[nH]c(-c2ccccc2O)n1)N1CCOCC1 | i | i | i | i | i | i | i | i | i | i
CCCC1CC(C(=O)NC(C(C)Cl)C2OC(SC)C(O)C(O)C2O)N(C)C1 (configuration not stated) | i | i | i | i | i | i | i | i | i | i
CC(C)Sc1nc(O)c(Cc2ccccc2)c(=O)[nH]1 | i | i | i | i | i | i | i | i | i | i
O=C(NC1CCCCC1)N1CCN(c2ccccc2Cl)CC1 | i | i | i | i | i | i | i | i | i | i
CCOC(=O)N1CCN(C(=O)C2CCN(S(=O)(=O)N3CCC4(CC3)OCCO4)CC2)CC1 | i | i | i | i | i | i | i | i | i | i
FC(F)(F)c1cc(-c2ccccc2)nc(N2CCOCC2)n1 | i | i | i | i | i | i | i | i | i | i
CC12CCC3c4ccc(O)cc4CCC3C1CCC2=O (configuration not stated) | i | i | · | i | · | i | · | i | · | ·
CC(=O)c1sc(NC(=O)C2CCN(C(=O)c3ccc(F)cc3)CC2)nc1-c1ccccc1 | i | i | i | i | i | i | i | i | i | i
Nc1ncnc2c1ncn2[C@@H]1O[C@H](CO)[C@@H](O)[C@@H]1O | i | i | i | i | i | i | i | i | i | i
Cc1ccccc1NC(=O)CCC(=O)N/N=C/c1cccnc1 | i | i | i | i | i | i | i | i | i | i
CN1CCN(C2=Nc3cc(Cl)ccc3Nc3ccccc32)CC1 | i | i | i | i | i | i | i | i | i | -7.5*
Cc1noc(C(=O)Nc2cccc(O)c2)c1Cl | i | i | i | i | i | i | i | i | i | i
CC1C(=O)N2CCCc3cc(S(=O)(=O)NCc4ccccc4Cl)cc1c32 (configuration not stated) | i | i | i | i | i | i | i | i | i | i

# The last two entries of the section above are carried over, then new ones follow.
SMILES | ANO1 block | MrgX1 allo act | RGS4 inh | MrgX1 agonist | KCNQ1 block | TMEM16A act | KCNQ1 pot | KCNK3 block | KCNK9 inh | RGS4 act
Cc1noc(C(=O)Nc2cccc(O)c2)c1Cl | i | i | i | i | i | i | i | i | i | i
CC1C(=O)N2CCCc3cc(S(=O)(=O)NCc4ccccc4Cl)cc1c32 (configuration not stated) | i | i | i | i | i | i | i | i | i | i
COc1ccc(Cl)cc1NC(=O)C1CCCN(c2cc(C)nc3ncnn23)C1 (configuration not stated) | i | i | i | i | i | i | i | i | i | i
COc1ccc(NS(=O)(=O)c2ccc(N)cc2)nn1 | i | i | i | i | i | · | i | · | i | i
Cc1c(C2C(C#N)=C(N)N(c3cccc([N+](=O)[O-])c3)C3=C2C(=O)CCC3)cnn1C (configuration not stated) | i | i | i | i | i | · | i | · | i | i
C[C@H]1[C@@H](OC(=O)CCC(=O)O)O[C@@H]2OC3(C)CC[C@H]4[C@H](C)CC[C@@H]1[C@@]24OO3 | i | i | i | i | i | · | i | · | i | i
COc1ccc(OC)c(S(=O)(=O)NC(C)CCc2ccccc2)c1 (configuration not stated) | i | i | i | i | i | i | i | i | i | i
CC(=O)NCCOc1nc(N2CCCCC2)nc(N2CCCCC2)n1 | i | i | i | i | i | -7* | i | i | i | i
CC(/C=N/NC(=O)c1n[nH]c2c1CCC2)=C\c1ccccc1 | i | i | i | i | i | i | i | i | i | i
Cc1[nH]cnc1CN1CCc2c(c3ccccc3n2C)C1=O | i | i | i | i | i | i | i | i | i | i
N[C@@H](Cc1cc(I)c(Oc2ccc(O)c(I)c2)c(I)c1)C(=O)O | i | i | i | i | i | i | i | i | i | i
CCN(CC(=O)Nc1ccc2c(c1)OCO2)S(=O)(=O)c1ccccc1 | i | i | i | i | i | i | i | i | i | i
COc1ccc(/C=C2\N=C(SC)SC2=O)cc1OC | i | i | i | i | i | i | i | i | i | i
Cc1cc(C)nc(NS(=O)(=O)c2ccc(N3C(=O)C4C5C=CC(C5)C4C3=O)cc2)n1 (configuration not stated) | i | i | i | i | i | i | i | i | i | i
CCNC(=O)C1CC(=O)N(CC)C(=Nc2cc(Cl)c(O)c(Cl)c2)S1 (configuration not stated) | i | i | i | i | i | i | i | i | i | i
CCN(CCCc1ccccc1)CCCc1ccccc1 | i | i | i | i | i | i | i | i | i | i
COc1cc(Cc2cnc(N)nc2N)cc(OC)c1OC | i | i | i | i | i | i | i | i | i | i
Cc1cc2ncn(/N=C/c3ccc([N+](=O)[O-])s3)c2cc1C | i | i | i | i | i | i | i | i | i | i
CC(=O)Nc1ccc(S(=O)(=O)NCCN2CCOCC2)cc1 | i | i | i | i | i | i | i | i | i | i
CCN=C1S/C(=C\c2ccc(N3CCOCC3)cc2C)C(=O)N1CC | i | i | i | i | i | i | i | i | i | i
COc1ccc(C2NC3=C(CCC3)C3(C#N)C(OC)(OC)N=C(N)C23C#N)cc1 (configuration not stated) | i | i | i | i | i | i | i | i | i | i
CCC1CCCCN1C(=O)Cn1nc([N+](=O)[O-])c(Cl)c1C (configuration not stated) | i | i | i | i | i | i | i | i | i | i
COc1ccccc1OCC(O)CO (configuration not stated) | i | i | i | i | i | i | i | i | i | i
CC(/C=C/c1ccc2c(c1)OCO2)=N/NC(=O)COc1ccc(C)cc1 | i | i | i | i | i | i | i | i | i | i
CC(C)CC(=O)NC1(C(F)(F)F)C(=O)N(CC(C)C)C2=C1C(=O)CC(C)(C)C2 (configuration not stated) | i | i | i | i | i | i | i | i | i | i
CCN1CCN(C(=O)N[C@@H](C(=O)N[C@@H]2C(=O)N3[C@@H]2SC(C)(C)[C@@H]3C(=O)O)c2ccccc2)C(=O)C1=O | i | i | i | i | i | · | i | · | i | i
N#Cc1cc2c(nc1SCC(=O)O)CCCC2 | i | i | i | i | i | i | i | i | i | i
CCN1CCCC1CNC(=O)c1ccc2c(c1)NC(=O)/C(=C\c1ccc(OC)c(OC)c1)S2 (configuration not stated) | i | i | i | i | i | i | i | i | i | i
O=c1[nH]c(=O)n([C@H]2C[C@H](O)[C@@H](CO)O2)cc1C(F)(F)F | i | i | i | i | i | i | i | i | i | i
COCC(C)n1c(C)cc(C(=O)CSc2ncccn2)c1C (configuration not stated) | i | i | i | i | i | i | i | i | i | i
COc1ccc(OCC(=O)NNC(=O)c2ccccn2)cc1 | i | i | i | i | i | i | i | i | i | i
O=C1C2C3C=CC(CC3)C2C(=O)N1c1cccc(C(F)(F)F)c1 (configuration not stated) | i | i | i | i | i | i | i | i | i | i
CC1(C)[C@H](C(=O)O)N2C(=O)C[C@H]2S1(=O)=O | i | i | i | i | i | i | i | i | i | i
O=C1OC(/C=C/c2ccccc2)=NC/1=C/C=C/c1ccccc1 | i | i | i | i | i | i | i | i | i | i
CCCCCCCC[n+]1c(C)n(-c2ccccc2)c2ccc(NC(C)=O)cc21 | i | i | i | i | i | i | i | i | i | i
O=C(CSc1nc(-c2cccs2)cc(C(F)(F)F)n1)NCCCn1ccnc1 | i | i | i | i | i | i | i | i | i | i

# Some of the entries so far, as labelled records.
> COc1ccc(OCC(=O)NNC(=O)c2ccccn2)cc1
- ANO1 block = i
- MrgX1 allo act = i
- RGS4 inh = i
- MrgX1 agonist = i
- KCNQ1 block = i
- TMEM16A act = i
- KCNQ1 pot = i
- KCNK3 block = i
- KCNK9 inh = i
- RGS4 act = i

> O=C1C2C3C=CC(CC3)C2C(=O)N1c1cccc(C(F)(F)F)c1 (configuration not stated)
- ANO1 block = i
- MrgX1 allo act = i
- RGS4 inh = i
- MrgX1 agonist = i
- KCNQ1 block = i
- TMEM16A act = i
- KCNQ1 pot = i
- KCNK3 block = i
- KCNK9 inh = i
- RGS4 act = i

> CC1(C)[C@H](C(=O)O)N2C(=O)C[C@H]2S1(=O)=O
- ANO1 block = i
- MrgX1 allo act = i
- RGS4 inh = i
- MrgX1 agonist = i
- KCNQ1 block = i
- TMEM16A act = i
- KCNQ1 pot = i
- KCNK3 block = i
- KCNK9 inh = i
- RGS4 act = i

# The list is partial; count on the stated rates, not on these rows.
